Assay outcomes (PubChem BioAssay)
LASV entry inh – blocks Lassa virus binding to or entry into cells | Lassa virus pseudotype entry inhibition, cell reporter; control for the full effect not named in the record | Potency, µM (highest dose often 37.9 µM), inactives show at the top dose activity change, negative = inhibition, actives largely listed as inhibitors | hit rate 1.2% among 300,000 | AID 540256; active means well fitted inhibition curve with a large enough effect; inconclusive means small, poorly fitted or top-dose-only effect, or effect the other way; inactive means flat fitted curve, though single readings scatter; tested in HEK293 cells; note: % is set by controls: 0 for no effect and ±100 for the full control effect; nearly all actives have a fitted effect of over 50% in size; luciferase read-out
NS1 function inh – blocks influenza NS1 protein function; S. cerevisiae slowed by influenza A NS1, growth recovery by OD600; Potency, µM (series often up to 46.1 µM), for inactives: at the highest dose activity, positive = more growth; hit rate 0.4% among 270,000; AID 2326; note: actives are rising curves; nearly all actives have a fitted effect of over 50% in size
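Recovery from NS1-induced slow growth read by OD600 in budding yeast switched to galactose assay medium (pH 6.0, -URA) at 1:100 dilution. Compound 23 nl per well; the matching strain lacking NS1 serves as control.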
StopGo reporter – FMDV 2A StopGo reporter, luciferase signal; human cells with a luciferase reporter of 2A StopGo recoding; control for the full effect not named in the record; Potency, µM (series often up to 57.9 µM), for inactives: top-dose signal change, negative = less light; hit rate 1.2% among 410,000; AID 1159524; active = well fitted falling curve with a large enough effect; inconclusive = small, poorly fitted or top-dose-only effect; inactive = no such curve, though single readings can be large or run the other way; tested in HEK293T cells; note: % is set by controls: 0 for no effect and ±100 for the full control effect; nearly all actives have a fitted effect of over 45% in size; luciferase light after 4 h
RE007 growth inh – less growth of the S. pombe RE007 Vpr strain | hit rate 0.21% among 360,000 | Potency, µM (doses to about 92.2 µM), inactives show at the top dose activity change, negative = less growth | S. pombe RE007 Vpr strain, BacTiter-Glo ATP luminescence, 24 h; control for the full effect not named in the record; active = well fitted falling curve with a large enough effect; inconclusive = small, poorly fitted or top-dose-only effect; inactive = no such curve, though single readings can be large or run the other way;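 note: % is set by controls: 0 for no effect and ±100 for the full control effect; nearly all actives have a fitted effect of over 50% in size; the assay follows cell death caused by Vpr and the record does not say whether a fall means rescue or toxicity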
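Fission yeast RE007 carrying one integrated HIV-1 vpr copy, seeded at OD 0.01 in PMG+AL medium with 23 nL pinned compound. Grown 24 h at 30 degrees; viability read by BacTiter-Glo luminescence after 5 min.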
SARS PLP yeast – inhibitors of SARS-CoV papain-like protease in yeast. S. cerevisiae expressing SARS-CoV PLpro, growth rescue; control for the full effect not named in the record. Potency, µM (titrated, usually from 32.9 µM), for inactives: at the highest dose activity, positive = growth rescue. hit rate 0.19% among 330,000. AID 485353; note: 0% is about no effect; nearly all actives have a fitted effect of over 55% in size; growth read by luminescence after 48 h
Cruzain noTriton – cruzain (T. cruzi) inhibition without detergent | P25779 | purified cruzain, Z-FR-AMC fluorescence, no detergent | Potency, µM, for the others: max response, negative = inhibition, actives largely listed as inhibitors | hit rate 2.3% among 200,000 | AID 1476; active = well fitted curve in the direction sought with a large enough effect; inconclusive = small, poorly fitted or top-dose-only effect, or another doubt; inactive = no such curve, though single readings can be large; an effect the other way counts as inactive or inconclusive;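 note: plate controls were enzyme without inhibitor for no effect and buffer without enzyme for full effect; nearly all actives have a fitted effect of over 40% in size; top concentration of the series not given in the record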
Target sequence (P25779 123-467 limits assumed): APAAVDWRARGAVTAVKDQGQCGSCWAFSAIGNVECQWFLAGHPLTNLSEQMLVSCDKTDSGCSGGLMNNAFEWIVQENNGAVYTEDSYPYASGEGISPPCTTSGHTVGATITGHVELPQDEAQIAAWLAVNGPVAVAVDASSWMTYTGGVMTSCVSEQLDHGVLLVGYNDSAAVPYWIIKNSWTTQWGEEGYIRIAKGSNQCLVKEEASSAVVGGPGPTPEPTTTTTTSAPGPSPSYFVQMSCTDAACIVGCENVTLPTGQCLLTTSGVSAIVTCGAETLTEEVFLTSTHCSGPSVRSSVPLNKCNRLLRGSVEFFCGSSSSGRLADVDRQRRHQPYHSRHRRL
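Detergent-free condition (0.00005% Triton X-100) in acetate buffer pH 5.5 with DTT. 1.5 nM enzyme and compound were pre-mixed 15 min, then 2 uM Z-FR-AMC substrate added; reaction progress from fluorescence change between first and third reads (60 s).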
MARV entry inh – blocks Marburg virus binding to or entry into cells. Marburg virus pseudotyped entry inhibition, cell reporter; control for the full effect not named in the record; about a third of the inactives were read at about 46 µM. Potency, µM (highest dose often 37.8 µM), inactives show at the highest dose activity change, negative = inhibition, hits mostly inhibitors. hit rate 1.8% among 300,000; active = well fitted inhibition curve with a large enough effect; inconclusive = small, poorly fitted or top-dose-only effect, or effect the other way; inactive = flat fitted curve, though single readings scatter; tested in HEK293 cells; about a fifth of its hits are not listed in these tables; note: % is set by controls: 0 for no effect and ±100 for the full control effect; luciferase read-out
Cruzain inh Det – inhibitors of Trypanosoma cruzi cruzain with detergent | P25779 | purified cruzain, Z-FR-AMC fluorescence, 0.01% Triton | Potency, µM, for inactives: max response, negative = inhibition, actives largely listed as inhibitors | hit rate 0.43% among 200,000 | AID 1478; active = well fitted curve in the direction sought with a large enough effect; inconclusive = small, poorly fitted or top-dose-only effect, or another doubt; inactive = no such curve, though single readings can be large; an effect the other way counts as inactive or inconclusive;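 note: plate controls were neutral wells for no effect and buffer without enzyme for full effect; nearly all actives have a fitted effect of over 40% in size; top concentration of the series not given in the record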
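Cruzain (1.5 nM) preincubated 15 min at RT with compound in 100 mM sodium acetate pH 5.5, 5 mM DTT, 0.01% Triton X-100. Reaction started with 2 uM Z-FR-AMC; AMC fluorescence (ex 360/em 450 nm) change over 60 s gave rate.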
Numbers without * were called inactive; ? = inconclusive; . = not tested or not shown; & = joins results of further samples; [ ] = another dose, or the depositor's remark. Unless noted, calls come from the whole dose curve; as a rule, active means well fitted rising curve with a large enough effect; inconclusive means small, poorly fitted or top-dose-only effect; inactive means no such curve, though single readings can be large or run the other way. Potency is the fitted concentration of half-maximal effect.

[1] CC(=O)N1CCN(S(=O)(=O)c2cccc(C(=O)Nc3cc(C(F)(F)F)ccc3N3CCOCC3)c2)CC1
[2] CCN1C(=O)[C@H]2[C@@H](c3ccc(C)cc3)N3C(=O)N(c4cccc(F)c4)C(=O)[C@@]3(C)[C@H]2C1=O
[3] O=C(O)c1cccnc1Nc1ccc(Cl)cc1
[4] O=C(COc1coc(CN2CCN(c3ccccc3)CC2)cc1=O)NCC1CCCO1 (stereo unspecified)
[5] CN(C)CCOC(C1CCCCC1)C1CCCCC1
[6] COc1ccc(-c2csc(NC(=O)CC(NC(C)=O)c3ccccc3)n2)cc1OC (stereo unspecified)
[7] COc1ccccc1N1CCN(C(=O)Nc2cn(CC(C)C)c(=O)c3ccccc23)CC1
[8] Cc1ccc(OCC(=O)Nc2ccc(S(=O)(=O)Nc3ncccn3)cc2)c(C(C)(C)C)c1

screen / no. | 1 | 2 | 3 | 4 | 5 | 6 | 7 | 8
LASV entry inh | 17% | . | ? | 13% | ? | -26%[46.1 µM] | 10%[46.1 µM] | -3%[46.1 µM]
NS1 function inh | -21% | 6% | . | . | -51% | 16% | . | .
StopGo reporter | -2% | -6% | 18% | -5% | -24% | ? | 1% | -25%
RE007 growth inh | -14% | -11% | -6% | -2% | 8% | 3% | . | .
SARS PLP yeast | 17% | -3% | 5% | 0% | -10% | 2% | . | .
Cruzain noTriton | . | . | . | . | -8% | . | -4% | ?
MARV entry inh | -1% | . | ? | -2% | ? | ? | . | .
Cruzain inh Det | . | . | . | . | 2.1% | . | -2.1% | -0.4%

[9] CSCC[C@H](NC(=O)c1nn(C)c(=O)c2ccccc12)c1nc2ccccc2[nH]1
[10] Cc1ncc(CN2CCC(CO)(CCc3ccccc3)CC2)s1
[11] CCC1C(=O)N=C(SCC(=O)Nc2ccc(C)cc2)N(c2ccccc2)C1=O (stereo unspecified)
[12] Cc1cccc(NS(=O)(=O)c2cccc(C(=O)NCC(c3ccc(F)cc3)N3CCOCC3)c2)c1 (stereo unspecified)
[13] COC(=O)c1sccc1-c1ccc(/C=N/OCc2c(Cl)cccc2Cl)o1
[14] CC(=O)Nc1cccc(C(=O)OCC(=O)Nc2nnc(-c3ccccc3)o2)c1
[15] Cc1ccc(/C=N/Nc2cccc(C(=O)O)c2)s1
[16] CC(=O)c1sc(NC(=O)C2CSC3(C)CCC(=O)N23)nc1-c1ccccc1 (stereo unspecified)

screen / no. | 9 | 10 | 11 | 12 | 13 | 14 | 15 | 16
LASV entry inh | 21% | . | -18%[46.1 µM] | ? | -8% | -1% | 1.6µM* | -3%
NS1 function inh | -8% | -3% | 18% | . | 14% | . | 11% | .
StopGo reporter | . | -5% | -5% | 11% | -17% | 13% | 3.5µM* | 11%
RE007 growth inh | -13% | 5% | -2% | 2% | -4%[3.69 µM] | -6% | -22% | 8%
SARS PLP yeast | 1% | 0% | 0% | . | ? | -2% | 4% | -4%
Cruzain noTriton | -1% | . | . | . | ? | . | -13% | .
MARV entry inh | -8% | . | 7%[46.1 µM] | ? | 15% | 29% | 1.1µM* | ?
Cruzain inh Det | -12% | . | . | . | 1.7% | . | -10% | .

[17] O=C(c1cc(Cl)c(=O)n(Cc2ccccc2)c1)N1CCOCC1
[18] COc1ccc(C2(O)CCN(CC(=O)Nc3nc(-c4ccccc4)cs3)CC2)cc1
[19] c1csc(CCNc2ncnc3sc4c(c23)CCC4)c1
[20] O=C(O)C1CSC(c2coc3ccccc3c2=O)N1 (stereo unspecified)
[21] C=CCOc1ccc(C2/C(=C(\O)c3c(C)[nH]c(C(=O)OC)c3C)C(=O)C(=O)N2CCN(C)C)cc1 (stereo unspecified)
[22] COc1ccc(Nc2nc3c(S(=O)(=O)c4ccc(C)cc4)nnn3c3ccsc23)cc1Cl
[23] CCOC(=O)N1CCN(C(=O)c2ccc(-n3c(C)ccc3C)cc2)CC1
[24] Cc1ccc(C)c(NC(=O)c2cnc3n(c2=O)CCS3)c1

screen / no. | 17 | 18 | 19 | 20 | 21 | 22 | 23 | 24
LASV entry inh | -20% | ? | . | 14% | 4% | -19%[46.1 µM] | -17% | 29%[46.1 µM]
NS1 function inh | 15% | . | -105% | -33% | ? | . | 5% | .
StopGo reporter | -4% | 28µM* | 13µM* | -12% | 2% | -15% | -18% | 39%[activator]
RE007 growth inh | 9% | -4% | -16% | 40µM* | 6% | . | -8% | -1%
SARS PLP yeast | -2% | 7% | -19% | -18% | 5% | . | 3% | 0%
Cruzain noTriton | 2% | . | -7% | 15% | 2% | -1% | 10% | .
MARV entry inh | 3% | ? | . | -6% | 19%&19% | . | ? | ?
Cruzain inh Det | 1.1% | . | -6.1% | -5.1% | -0.6% | -0.2% | 0.8% | .

[25] CCC(=O)N1CCc2cc(Br)cc(S(=O)(=O)N3CCCC(C(=O)Nc4cccc(C)c4C)C3)c21 (stereo unspecified)
[26] CCN(CC)C(=O)CN1CCC(n2c(C)nc3cc(C(F)(F)F)ccc32)CC1
[27] C=CCN(Cc1nc(-c2ccccc2)no1)C(=O)c1ccoc1C
[28] CN1C(=O)c2ccc(N(C)C)cc2C1=O
[29] O=C(CCCn1c(=S)[nH]c2ccsc2c1=O)NCCc1ccccc1
[30] Cc1cc2ccccc2n2c(SCC(=O)N3CCOCC3)nnc12
[31] C=CCn1c(SCc2csc(C)n2)nc2scc(-c3ccc(C)o3)c2c1=O
[32] CN1CCc2c1nc1ccccc1c2N (tested in a mixture with another compound)

screen / no. | 25 | 26 | 27 | 28 | 29 | 30 | 31 | 32
LASV entry inh | -25%[46.1 µM] | 0% | 8% | 8% | . | -12% | -1% | 7%
NS1 function inh | . | -9% | -14% | -1% | -6% | 5% | 2% | 4%
StopGo reporter | -2% | 13% | -21% | 4% | 11% | -5% | -14% | -15%
RE007 growth inh | . | 0% | 12% | -4% | -3% | -1% | -13% | 0%
SARS PLP yeast | . | -1% | -5% | -8% | -2% | 1% | -8% | 4%
Cruzain noTriton | 4% | 2% | . | -1% | . | . | 21% | .
MARV entry inh | ? | 15%[46.1 µM] | -13% | 1%&1%[46.1 µM] | . | 4% | 2% | ?
Cruzain inh Det | -0.5% | 1.9% | . | -6.0% | . | . | -2.7% | .

[33] Cc1ccc(C)c(OCc2cc(C(=O)N3C[C@H]4C[C@@H](C3)c3cccc(=O)n3C4)no2)c1
[34] CCCc1nnc(SCC(=O)N2CCCC(C)C2)n1CC1CCCO1 (stereo unspecified)
[35] Cc1cccc(-n2c(SCCC(=O)O)nnc2-c2cccs2)c1C
[36] COC(=O)c1cc(OC)c(OC)cc1NC(=O)CCc1ccc(C)o1
[37] O=C(CSc1nnc(NC2CC2)s1)c1ccc[nH]1
[38] Cc1cc(C(F)(F)F)n2nc(-c3cnn(C)c3C(F)(F)F)c(Br)c2n1
[39] O=C(CSc1ccc(-c2ccccn2)nn1)Nc1ccccc1
[40] CC(=O)Nn1c(-c2ccccc2)cc2ccccc21

screen / no. | 33 | 34 | 35 | 36 | 37 | 38 | 39 | 40
LASV entry inh | 8% | -2% | 10% | -6% | ? | -19%[46.1 µM] | ? | 1%
NS1 function inh | 5% | 3% | 13% | -45% | . | -3% | -103% | -39%
StopGo reporter | -8% | 2% | -27% | -3% | 29% | -14% | 0% | -10%
RE007 growth inh | 3% | 0% | 2% | -13% | -11% | 7% | -21% | -3%
SARS PLP yeast | -3% | 2% | -5% | -1% | -6% | 1% | -20% | -8%
Cruzain noTriton | . | -12% | 0% | ? | . | . | . | 10%
MARV entry inh | -19% | 0%[46.1 µM] | 20% | -8%[46.1 µM] | 18% | ? | -26% | ?
Cruzain inh Det | . | 7.6% | 1.0% | -4.4% | . | . | . | 5.4%

[41] CN(CC(=O)Nc1ccc(Cl)cc1)CC(=O)Nc1cc(Cl)ccc1C#N
[42] O=c1c2ccccc2oc2nc(-c3cccs3)n(CCc3ccccc3)c(=O)c12
[43] CC(=O)Nc1c(O)nc(SCC(=O)Nc2ccc(C(C)=O)cc2)[nH]c1=O
[44] CCOC(=O)C1=C(C)NC(C)=C(C(=O)OCC)C1c1cn(-c2ccccc2)nc1-c1ccco1
[45] CCOC(=O)C1(Cc2cccc(OC)c2)CCCN(Cc2nccn2CC)C1 (stereo unspecified)
[46] O=C(CSc1nnc(CNC(=O)c2cccc(C(F)(F)F)c2)o1)NC1CCCCC1
[47] Cn1cc(/C=N/n2cnc3scc(-c4ccccc4)c3c2=O)c2ccccc21

screen / no. | 41 | 42 | 43 | 44 | 45 | 46 | 47
LASV entry inh | -10% | 14% | ? | -1% | ? | . | -10%
NS1 function inh | -64% | 19% | -1% | -1% | 1% | 15% | 13%
StopGo reporter | . | . | 84%[activator] | -9% | -30% | -10% | -17%
RE007 growth inh | 10% | . | 9% | 7% | -2% | 10% | -13%
SARS PLP yeast | -14% | 7% | 0% | 0% | -1% | -5% | ?
Cruzain noTriton | 16% | -10% | -15% | ? | . | . | ?
MARV entry inh | ? | -16% | 19% | 0% | ? | . | ?
Cruzain inh Det | -8.3% | -6.6% | -9.4% | 11% | . | . | -0.6%

Nos. 44 to 47 from above:
[44] CCOC(=O)C1=C(C)NC(C)=C(C(=O)OCC)C1c1cn(-c2ccccc2)nc1-c1ccco1
[45] CCOC(=O)C1(Cc2cccc(OC)c2)CCCN(Cc2nccn2CC)C1 (stereo unspecified)
[46] O=C(CSc1nnc(CNC(=O)c2cccc(C(F)(F)F)c2)o1)NC1CCCCC1
[47] Cn1cc(/C=N/n2cnc3scc(-c4ccccc4)c3c2=O)c2ccccc21

screen / no. | 44 | 45 | 46 | 47
LASV entry inh | -1% | ? | . | -10%
NS1 function inh | -1% | 1% | 15% | 13%
StopGo reporter | -9% | -30% | -10% | -17%
RE007 growth inh | 7% | -2% | 10% | -13%
SARS PLP yeast | 0% | -1% | -5% | ?
Cruzain noTriton | ? | . | . | ?
MARV entry inh | 0% | ? | . | ?
Cruzain inh Det | 11% | . | . | -0.6%
